Vaccinia stage = Vaccinia orthopox stage-specific inhibition; Vaccinia-infected cells, mCherry/Venus stage reporter fluorescence; active compounds read low; some inactives read as strong as hits; activity change (mCherry), % (no concentration beside the values); 89,000 tested, 0.01% active; AID 1053133;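 active means mCherry past -33% and 40 or more points under the early reporter, replicates agreeing; inconclusive means past -33% without that gap or agreement; tested in A549 cells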;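 further: scaled between vehicle wells and reference inhibitor wells; 23 nL library stock went into each well; one replicate is shown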
Vaccinia stage Venus = also measured in Vaccinia stage; calls as there; activity change (Venus), %; measured here: Venus reporter, other viral stage;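 negative = less Venus signal; first of two replicates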
The depositor's hits bear a star; ? = inconclusive; · = no result given. Some of the compounds tested; rates above refer to the full screens.

SMILES	Vaccinia stage	Vaccinia stage Venus
C[C@H]1CN([C@@H](C)CO)C(=O)Cc2cc(NS(=O)(=O)c3ccccc3)ccc2O[C@H]1CN(C)C(=O)Nc1ccccc1	19.4	11.4
C[C@@H]1CN([C@@H](C)CO)C(=O)c2cccc(NS(=O)(=O)c3ccc(F)cc3)c2O[C@@H]1CN(C)Cc1ccc(C(=O)Nc2ccccc2N)cc1	?	·
C[C@@H]1CN([C@H](C)CO)S(=O)(=O)c2ccc(-c3cccnc3)cc2O[C@H]1CN(C)C(=O)C1CCCCC1	0.8	8.1
O=C(C[C@@H]1C[C@@H]2c3cc(NC(=O)Nc4ccc(C(F)(F)F)cc4)ccc3O[C@@H]2[C@@H](CO)O1)NCC1CC1	3.3	-0.4
CCOC(=O)N(C)C[C@@H]1OCc2cnnn2CCCC(=O)N([C@@H](C)CO)C[C@@H]1C	10.5	9.5
O=C(Cc1ccccc1)N[C@H]1CC[C@@H](CC(=O)N2CCCCC2)O[C@H]1CO	3.7	2.9
COc1cccc(-c2ccc(C3[C@@H]4CN(S(=O)(=O)c5ccccc5C)C[C@H]3N4)cc2)c1 (stereo partly specified)	?	6.2
CCCC#Cc1ccc([C@@H]2[C@H](CO)N3CCCCN(Cc4cccnc4)C[C@@H]23)cc1	-28.6	-28.1
C[C@@H]1CN([C@H](C)CO)C(=O)Cc2cc(NC(=O)Nc3ccc(F)cc3)ccc2O[C@@H]1CN(C)C(=O)Nc1ccc2c(c1)OCO2	11.7	12.4
COc1ccc(-c2ccc([C@H]3[C@@H](C#N)N(C(=O)C4CC4)[C@H]3CO)cc2)cc1	?	·
C[C@H](CO)N1C[C@H](C)[C@@H](CN(C)Cc2ccc(Cl)c(Cl)c2)Oc2c(NC(=O)Nc3ccc(C(F)(F)F)cc3)cccc2C1=O	0.1	2.0
O=C(Nc1cccc(F)c1)N[C@H]1CC[C@H](CCNS(=O)(=O)c2cccc(Cl)c2)O[C@@H]1CO	-21.0	-14.8
C[C@H](CO)N1C[C@H](C)[C@@H](CN(C)C(=O)Nc2ccc(F)cc2)Oc2c(NC(=O)C3CCCCC3)cccc2C1=O	-2.7	5.1
O=C(NCC[C@H]1CC[C@@H](NS(=O)(=O)c2cccc(F)c2)[C@H](CO)O1)Nc1cc(F)ccc1F	-8.5	-6.2
C[C@H](CO)N1C[C@H](C)[C@H](CN(C)Cc2ccc3c(c2)OCO3)Oc2c(NC(=O)Nc3ccccc3)cccc2C1=O	?	·

Grouped by structure, those above containing a halogen (7)
SMILES	Vaccinia stage	Vaccinia stage Venus
C[C@@H]1CN([C@@H](C)CO)C(=O)c2cccc(NS(=O)(=O)c3ccc(F)cc3)c2O[C@@H]1CN(C)Cc1ccc(C(=O)Nc2ccccc2N)cc1	?	·
O=C(C[C@@H]1C[C@@H]2c3cc(NC(=O)Nc4ccc(C(F)(F)F)cc4)ccc3O[C@@H]2[C@@H](CO)O1)NCC1CC1	3.3	-0.4
C[C@@H]1CN([C@H](C)CO)C(=O)Cc2cc(NC(=O)Nc3ccc(F)cc3)ccc2O[C@@H]1CN(C)C(=O)Nc1ccc2c(c1)OCO2	11.7	12.4
C[C@H](CO)N1C[C@H](C)[C@@H](CN(C)Cc2ccc(Cl)c(Cl)c2)Oc2c(NC(=O)Nc3ccc(C(F)(F)F)cc3)cccc2C1=O	0.1	2.0
O=C(Nc1cccc(F)c1)N[C@H]1CC[C@H](CCNS(=O)(=O)c2cccc(Cl)c2)O[C@@H]1CO	-21.0	-14.8
C[C@H](CO)N1C[C@H](C)[C@@H](CN(C)C(=O)Nc2ccc(F)cc2)Oc2c(NC(=O)C3CCCCC3)cccc2C1=O	-2.7	5.1
O=C(NCC[C@H]1CC[C@@H](NS(=O)(=O)c2cccc(F)c2)[C@H](CO)O1)Nc1cc(F)ccc1F	-8.5	-6.2

(continued)
SMILES	Vaccinia stage	Vaccinia stage Venus
COc1cccc(CNC(=O)[C@H]2[C@H](CO)[C@H]3Cn4c(cccc4=O)[C@@H]2N3C(=O)C2CCC2)c1	13.3	-0.3
C[C@H](CO)N1C[C@H](C)[C@H](CN(C)Cc2ccncc2)Oc2ccc(NC(=O)Cc3ccccc3)cc2C1=O	-0.8	-6.4
C[C@@H]1CN([C@@H](C)CO)C(=O)c2cc(Br)cnc2O[C@H]1CN(C)C(=O)CN1CCOCC1	2.8	-5.1
O=C(N[C@@H]1CC[C@H](CCNS(=O)(=O)Cc2ccccc2)O[C@H]1CO)c1cnccn1	3.9	4.7
C/C=C/c1cnc2c(c1)C(=O)N([C@@H](C)CO)C[C@H](C)[C@H](CN(C)Cc1ccccc1F)O2	13.8	3.2
COc1ccc2c3c([nH]c2c1)[C@H](CO)N(C(=O)c1cccc(F)c1)CC31CN(C(C)=O)C1	30.4	3.6
O=C(NCC[C@H]1CC[C@@H](NC(=O)c2cnccn2)[C@@H](CO)O1)c1ccc2c(c1)OCO2	4.6	0.7
C[C@H]1CCCCO[C@H](CN(C)C(=O)C2CCCCC2)[C@@H](C)CN([C@@H](C)CO)C(=O)c2cc(NC(=O)C3CCCCC3)ccc2O1	?	·
CCCC(=O)Nc1ccc2c(c1)C(=O)N(C)[C@@H]1CC[C@@H](CC(=O)O)O[C@H]1CO2	5.8	6.6
C[C@@H]1CN([C@H](C)CO)S(=O)(=O)c2ccc(-c3cccc(F)c3)cc2O[C@H]1CN(C)C	-14.1	-15.3
C[C@H](CO)N1C[C@H](C)[C@@H](CN(C)Cc2ccc3c(c2)OCO3)Oc2c(NC(=O)Nc3ccc(C(F)(F)F)cc3)cccc2C1=O	-14.2	-11.1
CN1c2ccc(-c3ccccc3)cc2[C@@H]2[C@@H](CCN2C(=O)CC2CC2)[C@H]1CO	6.0	-0.5
COc1ccc(-c2ccc3n(c2=O)C[C@@H]2[C@@H](CO)[C@H](C(=O)N4CCOCC4)N[C@H]32)cc1	-33.8	-8.0
COc1ccc(S(=O)(=O)Nc2ccc3c(c2)C(=O)N([C@@H](C)CO)C[C@@H](C)[C@H](CN(C)S(=O)(=O)c2ccc(F)cc2)O3)cc1	-1.2	-4.5
C[C@H]1CN([C@@H](C)CO)C(=O)Cc2cc(NS(=O)(=O)c3ccc(F)cc3)ccc2O[C@H]1CN(C)C(=O)Nc1cccc2ccccc12	39.0	8.5
CO[C@@H]1CN(C)C(=O)c2cc(NC(C)=O)ccc2OC[C@@H](C)N(Cc2ccccc2F)C[C@@H]1C	-11.5	-3.0
C[C@H](CO)N1C[C@H](C)[C@H](CN(C)S(=O)(=O)c2ccc(Cl)cc2)OCCCC[C@H](C)Oc2ccc(NC(=O)c3ccccc3)cc2C1=O	-21.3	-8.6
C[C@@H]1CN([C@@H](C)CO)C(=O)c2cccc(NC(=O)C3CC3)c2O[C@H]1CN(C)CC1CC1	-26.3	-19.1
CCCNC(=O)C[C@H]1C[C@@H]2c3cc(NS(C)(=O)=O)ccc3O[C@@H]2[C@@H](CO)O1	0.2	-2.9
C[C@@H]1CN([C@@H](C)CO)C(=O)Cc2cc(NC(=O)Nc3ccccc3)ccc2O[C@@H]1CN(C)S(=O)(=O)c1ccc(Cl)cc1	?	·
CN(C)C(=O)c1ccc(-c2ccc([C@@H]3[C@H](CO)N4CCCCN(Cc5ccncc5)C[C@@H]34)cc2)cc1	18.6	14.5
CO[C@H](CN(C)S(=O)(=O)c1cccc(Cl)c1)[C@@H](C)CN([C@H](C)CO)S(=O)(=O)c1cccc(Cl)c1	?	·
C[C@@H]1CN([C@@H](C)CO)C(=O)c2cc(-c3cccc(C(=O)N(C)C)c3)cnc2O[C@H]1CN(C)S(=O)(=O)c1cccc(F)c1	8.6	11.2
CO[C@@H]1CN(C)C(=O)c2ccc(NC(=O)c3cc(C)on3)cc2OC[C@@H](C)N(C)C[C@H]1C	18.5	17.5
COc1ccc(S(=O)(=O)N(C)C[C@@H]2OCCCC[C@H](C)Oc3ccc(NC(=O)c4ccccc4)cc3C(=O)N([C@@H](C)CO)C[C@H]2C)cc1	-12.8	-11.3
CO[C@@H]1CN(C)C(=O)c2cc(NC(=O)c3ccccc3)ccc2OC[C@@H](C)N(C(=O)C2CC2)C[C@@H]1C	2.9	2.6
O=C(C[C@@H]1C[C@H]2c3cc(NC(=O)CC4CC4)ccc3O[C@H]2[C@H](CO)O1)NCc1ccncc1	10.6	8.2
CO[C@@H]1CN(C)C(=O)c2cc(NC(=O)CC(F)(F)F)ccc2OC[C@H](C)N(CC2CC2)C[C@@H]1C	0.6	-1.5
CC(C)NC(=O)Nc1ccc2c(c1)C(=O)N([C@@H](C)CO)C[C@H](C)[C@@H](CN(C)S(C)(=O)=O)OCCCC[C@@H](C)O2	37.8	16.2
CO[C@@H]1CN(C)C(=O)c2ccc(NC(=O)C3CCCC3)cc2OC[C@@H](C)N(C(C)=O)C[C@H]1C	10.1	4.7
C[C@H](CO)N1C[C@H](C)[C@H](CN(C)Cc2cncnc2)Oc2cc(Br)ccc2S1(=O)=O	17.6	0.4
O=C(Cc1ccccn1)N[C@@H]1CC[C@@H](CC(=O)N2CCCCC2)O[C@H]1CO	-11.2	-1.8
C/C=C/c1cnc2c(c1)C(=O)N([C@H](C)CO)C[C@H](C)[C@H](CN(C)C(=O)NCCC)O2	30.5	5.9
Cc1ccc(-c2ccc([C@H]3[C@H]4CN(C)CCCCN4[C@H]3CO)cc2)cc1	-30.9	-32.8
O=C(C[C@H]1C[C@H]2c3cc(NC(=O)c4cccnc4)ccc3O[C@H]2[C@H](CO)O1)NCc1cccnc1	16.1	6.3
C[C@@H]1CN([C@H](C)CO)C(=O)c2cc(NC(=O)NC3CCCCC3)ccc2O[C@H]1CN(C)S(=O)(=O)c1ccc(F)cc1	5.4	-2.1
CN1C(=O)c2cc(NC(=O)C3CC3)ccc2OC[C@H]2O[C@H](CC(=O)O)CC[C@@H]21	1.1	-0.5
COC(=O)[C@H]1[C@H](CO)[C@H]2Cn3c(ccc(/C=C/c4ccccc4)c3=O)[C@@H]1N2CC1CCCC1	?	·
C[C@H]1CN([C@@H](C)CO)C(=O)Cc2cc(NS(C)(=O)=O)ccc2O[C@@H]1CN(C)CC1CCCCC1	1.8	6.3
CCC(=O)N1[C@@H]2Cn3c(ccc(-c4ccccc4)c3=O)[C@H]1[C@@H](C(=O)N1CCCCC1)[C@@H]2CO	-0.4	4.6
C[C@@H]1CN([C@@H](C)CO)C(=O)c2cc(C#Cc3cccc(F)c3)cnc2O[C@@H]1CN(C)C(=O)C1CCCCC1	?	·
Cc1cccc(S(=O)(=O)N2[C@@H]3Cn4c(cccc4=O)[C@H]2[C@@H](C(=O)NC2CCC2)[C@@H]3CO)c1	-0.3	8.9
C[C@H](CO)N1C[C@H](C)[C@H](CN(C)Cc2ccc(Cl)c(Cl)c2)Oc2ccc(NC(=O)Nc3cccc4ccccc34)cc2C1=O	-9.4	-10.5
C/C=C/c1ccc([C@H]2[C@@H](CO)N3C(=O)CN(S(=O)(=O)c4cccc(F)c4)C[C@@H]23)cc1	-13.6	-13.7
COc1ccc(NC(=O)Nc2cccc3c2O[C@@H](CN(C)Cc2ccc(C(=O)Nc4ccccc4N)cc2)[C@H](C)CN([C@@H](C)CO)C3=O)cc1	1.5	-3.8
C[C@H](CO)N1C[C@H](C)[C@@H](CN(C)S(C)(=O)=O)Oc2ncc(C#CC3CCCCC3)cc2C1=O	-0.6	-3.1
CCCC#Cc1ccc([C@@H]2[C@H](CO)N3C(=O)CN(C(=O)NC4CCCC4)C[C@@H]23)cc1	-1.5	-9.3
CC(C)NC(=O)N1[C@H](CO)[C@@H]2c3ccccc3N(C(=O)Nc3ccc(Cl)cc3)C[C@@H]21	7.2	11.4
C[C@H](CO)N1C[C@H](C)[C@H](CN(C)C(=O)Nc2ccc(C(F)(F)F)cc2)Oc2ccc(NC(=O)Nc3ccccc3)cc2C1=O	7.1	17.1
N#C[C@H]1[C@H](c2ccc(C#CC3CCCCC3)cc2)[C@H](CO)N1C(=O)Nc1ccc(F)cc1	?	·
O=C(Nc1ccc(F)cc1)N[C@@H]1CC[C@@H](CCn2cc(-c3ccc(F)cc3)nn2)O[C@H]1CO	7.9	4.3
C[C@H](NC(=O)C[C@H]1C[C@@H]2c3cc(NC(=O)Nc4ccc(C(F)(F)F)cc4)ccc3O[C@@H]2[C@@H](CO)O1)c1ccccc1	8.4	6.8
COc1ccc2c3c([nH]c2c1)[C@@H](CO)N(C(=O)Nc1ccc(F)cc1)CC31CCN(C(=O)Nc2ccc3c(c2)OCO3)CC1	4.7	1.3
[N-]=[N+]=Nc1ccccc1C[C@@]1(C(=O)NCc2ccccc2)N=C(c2ccc(OCCCO)cc2)O[C@@H]1c1ccccc1	18.2	2.7
CC(C)CC#Cc1ccc2c(c1)O[C@H](CN(C)Cc1ccc(F)cc1)[C@@H](C)CN([C@@H](C)CO)S2(=O)=O	2.7	-4.4
COC(=O)[C@H]1[C@H](CO)[C@H]2Cn3c(ccc(-c4ccccc4OC)c3=O)[C@H]2N1CC1CCCC1	-9.2	13.4
C[C@H](CO)N1C[C@H](C)[C@@H](CN(C)C(=O)Nc2ccc(F)cc2)OCc2cnnn2CCCC1=O	19.2	16.9
O=C(C[C@H]1CC[C@@H](NC(=O)C2CCC2)[C@H](CO)O1)NCCCN1CCOCC1	9.4	2.2
CCS(=O)(=O)Nc1ccc2c(c1)C(=O)N(C)[C@H]1CC[C@@H](CC(=O)OC)O[C@H]1CO2	4.1	-9.1
CC(C)CC#Cc1cnc2c(c1)C(=O)N([C@H](C)CO)C[C@@H](C)[C@@H](CN(C)C(=O)c1ccc3c(c1)OCO3)O2	-19.0	-12.3
Cc1cccc(-c2ccc([C@H]3[C@H](CO)N4C(=O)CN(S(=O)(=O)c5cccc(F)c5)C[C@@H]34)cc2)c1	-9.1	-28.1
COc1ccc(CN(C)C[C@H]2Oc3c(NC(=O)NC(C)C)cccc3C(=O)N([C@@H](C)CO)C[C@H]2C)cc1	8.3	10.2
